# Bioassay records (PubChem)
# TRPML1 inh: human mucolipin-1 channel inhibition; Q9GZU1; TRPML1-inducible cells, Ca2+ dye fluorescence, FDSS; hits give low values; inhibition of EC80 agonist-evoked calcium signal; activity change, negative = inhibition, % (test concentration not listed); actives 0.02% (n = 390,000); in the data active means activity change below about -50%; inconclusive means about -30% to -50%; inactive means above about -30%;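 further: stimulus is agonist 54-4 at its EC80 concentration; on the % scale 0 is the no-effect control and ±100 the full control effect; compound concentration not given in the record; the text of the record puts the active cut at -80%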
#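 Calcium fluorescence in TRPML1-DL cells induced overnight with Tet: a 110 s read after compound pin addition, then a 110 s antagonist read after challenge with 54-4 at 4 uM final (EC80).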
# gsp antagonist: antagonists of gsp mutant (McCune-Albright syndrome); gsp-mutant cells, cAMP HTRF, 30 min; control for the full effect not named in the record; Potency, µM (titrated, usually from 76.9 µM), without a hit: top-dose activity change, negative = inhibition, actives largely listed as inhibitors; actives 0.4% (n = 340,000); AID 624288; active = falling curve of any shape with a large fitted effect; inconclusive = falling curve, mostly with a smaller effect; inactive = flat or rising curve; cell line not stated here;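 further: intracellular cAMP measured with PDE inhibitor Ro 20-1724 present during compound exposure; potency means the concentration at half of the fitted maximal effect; on the % scale 0 is the no-effect control and ±100 the full control effect; nearly all actives have a fitted effect of over 65% in size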
#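 HTRF cAMP measurement after 30 min RT detection following 30 min, 37C compound treatment alongside […] (added as 300 uM solution) in G418-selected cells seeded at 2000/well and grown 16–24 h.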
# gsp agonist: activates gsp, the McCune-Albright syndrome mutation | gsp mutant cells, cAMP HTRF, 30 min; control for the full effect not named in the record | Potency, µM (titrated, usually from 76.9 µM), for the others: top-dose activation (cAMP increase), most hits filed as activators | actives 0.13% (n = 340,000); active = well fitted activation curve with a large enough effect; inconclusive = small, poorly fitted or top-dose-only effect, or another doubt; inactive = no such curve, though single readings can be large or run the other way; cell line not stated here;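 further: phosphodiesterase inhibitor Ro 20-1724 added with compounds to block cAMP breakdown; potency means the concentration at half of the fitted maximal effect; nearly all actives have a fitted effect of over 60% in size; about a fifth of the inactives were tested at one dose only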
#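 Cells in DMEM/10% FBS with G418 were pretreated with compounds in DMSO plus […] (300 uM stock) for 30 min at 37C. cAMP was measured by HTRF (cAMP-d2 plus anti-cAMP antibody-K) after 30 min at room temperature.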
# Menin MLL FP FL: displaces fluorescein MLL peptide from human menin; Fluorescence polarization, fluorescein-MLL peptide displacement from menin; FP activity change, % at 61.4 µM; 290,000 tested, under 10 active; inconclusive = falling polarisation curve, or a change in total fluorescence; inactive = total fluorescence flat and polarisation flat or rising; no compound was filed as active; the % refers to the polarisation; negative = inhibition;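 further: % of control where 0% means no effect; inhibitors lower the polarisation; unlabelled MLL peptide was the positive control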
# ClpP mod: qHTS Assay for Activators of ClpP; ATP-dependent Clp protease proteolytic subunit (Bacillus subtilis (strain 168)), P80244; purified B. subtilis ClpP, FRET peptide cleavage, 20 min; actives 1.9% (n = 340,000); Potency, µM (series often up to 57.5 µM), inactives show at the highest dose activity change, negative = active; AID 651965, 2013; active = well fitted falling curve with a large enough effect; inconclusive = small, poorly fitted or top-dose-only effect; inactive = no such curve, though single readings can be large or run the other way; further: potency means the concentration at half of the fitted maximal effect; the source files actives as falling curves though it sought activators and does not explain the sign; nearly all actives have a fitted effect of over 65% in size; many hits overshoot -100%
# Target sequence (P80244 whole entry, looked up): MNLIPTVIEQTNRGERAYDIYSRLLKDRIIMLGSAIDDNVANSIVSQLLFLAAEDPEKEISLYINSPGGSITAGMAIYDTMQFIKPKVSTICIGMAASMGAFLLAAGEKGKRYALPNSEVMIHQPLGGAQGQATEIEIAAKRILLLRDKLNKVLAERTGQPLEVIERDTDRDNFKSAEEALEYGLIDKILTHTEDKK
#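 ClpP 10 microg/mL final, pH 8 Tris/KCl buffer with BSA, glycerol, Tween-20; compound pinned in; FRET-FV substrate; RT 20 min; Ex320/Em430; ΔFRET vs ADEP 5.8 microM, DMSO, no enzyme.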
# TRPV1 PAM: human TRPV1 potentiation | TRPV1-expressing cells, Fluo-8 calcium influx, capsaicin EC20 potentiation; host cell line not named in the record; control for the full effect not named in the record | potentiation, % at 8.33 µM | actives 0.02% (n = 320,000); active means potentiation above 80%; inconclusive means 30% to 80%; inactive means below 30%; further: 0% is about no effect
# Target sequence (Q8NER1 whole entry, looked up): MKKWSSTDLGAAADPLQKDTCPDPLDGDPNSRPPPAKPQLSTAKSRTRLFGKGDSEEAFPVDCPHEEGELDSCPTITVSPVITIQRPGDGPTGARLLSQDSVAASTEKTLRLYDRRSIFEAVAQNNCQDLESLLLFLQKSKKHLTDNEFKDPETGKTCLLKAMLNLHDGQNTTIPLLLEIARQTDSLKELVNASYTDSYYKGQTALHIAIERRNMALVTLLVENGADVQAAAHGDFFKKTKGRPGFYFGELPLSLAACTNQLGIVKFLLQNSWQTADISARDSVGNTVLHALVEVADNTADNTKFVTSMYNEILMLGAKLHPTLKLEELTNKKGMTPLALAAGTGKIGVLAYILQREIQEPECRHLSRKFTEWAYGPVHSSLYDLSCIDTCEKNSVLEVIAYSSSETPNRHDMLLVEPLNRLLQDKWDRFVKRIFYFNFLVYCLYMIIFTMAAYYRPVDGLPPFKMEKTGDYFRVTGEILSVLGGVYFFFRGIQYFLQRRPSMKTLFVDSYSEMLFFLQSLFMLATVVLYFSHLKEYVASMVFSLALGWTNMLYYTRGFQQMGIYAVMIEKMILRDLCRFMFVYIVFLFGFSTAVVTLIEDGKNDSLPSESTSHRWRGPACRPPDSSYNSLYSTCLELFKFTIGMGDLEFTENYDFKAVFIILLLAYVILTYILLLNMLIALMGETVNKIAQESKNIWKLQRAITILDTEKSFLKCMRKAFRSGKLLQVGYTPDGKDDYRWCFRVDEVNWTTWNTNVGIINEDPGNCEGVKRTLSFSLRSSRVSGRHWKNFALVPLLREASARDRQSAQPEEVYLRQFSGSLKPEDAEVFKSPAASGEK
#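 Cells expressing TRPV1 were dye-loaded with Fluo-8 and read kinetically: 10 s baseline, 3 min after compound (agonist portion), then 2 min after EC20 capsaicin (allosteric enhancer portion). Calcium-bound dye fluorescence at 480/520 nm.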
# Sfp PPTase inh: inhibitors of Bacillus subtilis Sfp phosphopantetheinyl transferase. Q9F4F7. Biochemical Sfp PPTase activity, qHTS. Potency, µM, for the others: max response, negative = inhibition, most hits filed as inhibitors. actives 3.5% (n = 310,000). AID 1490; active means well fitted inhibition curve with a large enough effect; inconclusive means small, poorly fitted or top-dose-only effect, or another doubt; inactive means no such curve, though single readings can be large or run the other way;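 further: the enzyme is Sfp with the accession as filed and its product quenches rhodamine fluorescence; potency means the concentration at half of the fitted maximal effect; 0% = enzyme reaction without inhibitor and -100% = no enzyme wells; top concentration of the series not given in the record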
#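 Step 1, compound plus 15 nM Sfp-PPTase, 15 min, room temperature. Step 2, add rhodamine-CoA (5 uM) and BHQ-2-YbbR (12.5 uM). Step 3, read 525/598 nm fluorescence at 0 and 30 min.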
# Active calls of the source: *; u = inconclusive; x = not tested or not shown; [ ] = remark or other dose.
# Start of the listing, in advance:
SMILES,TRPML1 inh,gsp antagonist,gsp agonist,Menin MLL FP FL,ClpP mod,TRPV1 PAM,Sfp PPTase inh
CC12CCC(C(=O)n3c1nc1ccccc13)C2(C)C (stereo not given),-8.5,-9.9%,-1.0%,2.6,-2.2%,6.5,10.0%
CCCCNC(=O)c1ccc(S(=O)(=O)c2ccc(Cl)cc2)c(NC(C)=O)c1,-9.9,1.0%,7.7%,3.8,-2.8%,-6.2,14.5%
CC(C)(C)NC(=O)c1ccc2c(c1)N(CC(=O)NC1CCCC1)C(=O)C(C)(C)O2,12.1,0.4%,4.8%,1.3,x,9.0,10.3%

# All compounds of this part, from the start:
SMILES,TRPML1 inh,gsp antagonist,gsp agonist,Menin MLL FP FL,ClpP mod,TRPV1 PAM,Sfp PPTase inh
CC12CCC(C(=O)n3c1nc1ccccc13)C2(C)C (stereo not given),-8.5,-9.9%,-1.0%,2.6,-2.2%,6.5,10.0%
CCCCNC(=O)c1ccc(S(=O)(=O)c2ccc(Cl)cc2)c(NC(C)=O)c1,-9.9,1.0%,7.7%,3.8,-2.8%,-6.2,14.5%
CC(C)(C)NC(=O)c1ccc2c(c1)N(CC(=O)NC1CCCC1)C(=O)C(C)(C)O2,12.1,0.4%,4.8%,1.3,x,9.0,10.3%
Cc1nc(SCC(=O)NCc2ccco2)[nH]c(=O)c1C,-1.6,5.5%,-1.5%,-6.0,-1.5%,8.1,9.1%
Cc1ccc(O)c(N=Nc2ccccc2)n1,9.6,-13.8%,x,u,-0.3%,x,u
O=C(c1cnc2ccccc2n1)N1CCN(c2ccc(C(F)(F)F)cn2)CC1,43.2,3.1%,0.7%[15.4 µM],-0.8,x,-20.1,13.6%
COc1ccc(-n2c(Cc3cccn3C)nnc2SCC(=O)Nc2ccc(C(C)=O)cc2)cc1,50.1,-17.2%,-27.7%,4.1,-0.1%,-3.1,-12.9%
COc1cc(/C=N/Nc2nc3c(c(=O)n(C)c(=O)n3C)n2Cc2ccccc2)ccc1OC(=O)c1ccco1,13.4,-14.6%,u,1.1,31.6µM*,5.2,6.7%
Cc1nn(-c2nnc(C)c(=O)[nH]2)c(C)c1SCC(=O)Nc1ccc(C(C)C)cc1,-13.2,-15.6%,u,1.5,-9.1%,u,-29.4%
CC(O)CNc1nc2sc3c(c2c(=O)n1Cc1ccco1)CCCCC3 (stereo not given),-2.6,u,22.4%,-1.7,x,u,u
Cc1ccccc1N1CCN(C(=O)c2cc(-c3ccccc3)nc3c2cnn3C(C)C)CC1,-10.5,x,-64.6%[inhibitor],x,1.2%,x,x
CCc1cccc(CC)c1NC(=O)COC(=O)C1(c2ccc(Cl)cc2)CCCC1,7.7,-18.0%,5.5%,0.3,-0.1%,3.2,14.7%
COc1ccc(N(CC(=O)N/N=C/c2ccco2)S(=O)(=O)c2ccccc2)cc1,-2.8,0.1%,-6.7%,0.6,-0.3%,12.7,1.5%
CCC(Sc1nccn1C)C(=O)Nc1cccc2ccccc12 (stereo not given),-12.0,11.5%,-33.9%[inhibitor],1.1,-3.9%,10.6,-6.3%
Cc1cc(Nc2ccc(C(C)C)cc2)n2ncnc2n1,18.8,2.1%,4.2%,1.8,-1.3%,-13.0,-18.8%
CN(C(=O)CCN1C(=O)/C(=C/c2ccccc2)SC1=S)C1CCS(=O)(=O)C1 (stereo not given),-13.0,10.4%,-1.8%,x,0.5%,28.5,-21.3%
CCCCn1cnc(C(=O)OCC)c1N,-14.8,5.5%,0.9%[15.4 µM],-0.3,x,-4.9,30.1%
O=C(O)CCSSCCC(=O)O,65.5,-2.7%,x,x,0.4%,0.2,x
CC(=O)c1ccc(NC(=S)NC(=O)Cc2ccc(Cl)cc2)cc1,-4.1,7.3%,-32.5%[inhibitor][15.4 µM],0.2,x,-16.5,2.4%
CC1CN(S(=O)(=O)c2cccc(C(=O)Nc3ccccc3N3CCCCC3)c2)CC(C)O1 (stereo not given),8.2,-32.3%,u,x,-11.6%,1.0,x
CC(C)C[C@H](NC(=O)[C@H](Cc1ccccc1)n1c(=O)[nH]c2ccccc2c1=O)C(=O)N1CCC[C@@H]1C(=O)O,18.8,5.2%,u,-7.7,4.0%,-3.6,20.8%
COc1cc(/C=C(/C(=O)c2cccs2)c2nc3ccccc3[nH]2)cc(OC)c1O,26.3,5.9%,-5.1%,5.8,-1.3%,1.5,-22.0%
COCCCNC(=S)NNC(=O)c1ccccn1,-0.3,x,24.4%[15.4 µM],3.6,x,5.5,5.9%
S=C(NCCCCc1ccccc1)NCc1ccccc1,-5.2,0.0%,12.0%,-0.7,-3.4%,-1.7,2.8%
Cn1c(N)c(C(=O)COC(=O)CCC2CCCC2)c(=O)n(C)c1=O,-10.5,6.3%,-20.1%[15.4 µM],-0.5,x,3.3,-0.6%
SMILES,TRPML1 inh,gsp antagonist,gsp agonist,Menin MLL FP FL,ClpP mod,TRPV1 PAM,Sfp PPTase inh
Cn1nc(C(F)(F)F)c(C(=O)Nc2ccc(F)cc2F)c1Sc1cccc(Cl)c1,71.4,-10.1%,-48.3%[inhibitor],-1.3,-3.2%,x,20.8%
COC(=O)c1ccc(NC(=O)CSc2ccccn2)cc1,-19.0,-1.0%,-2.6%,2.1,1.5%,13.6,-16.8%
CC(C)N1CCc2c(sc(NC(=O)c3ccc(S(=O)(=O)N4CCOCC4)cc3)c2C(N)=O)C1,0.1,4.0%,0.0%,u,-0.1%,1.1,8.1%
CCOc1ccc(NC(=S)N2CCN(S(=O)(=O)c3ccc(C)cc3)CC2)cc1,6.4,-8.2%,19.2%[15.4 µM],0.0,-1.4%,-0.9,11.6%
CCCOc1ccc(N2C(=O)CC(N(CCc3ccc(OC)c(OC)c3)C(=O)c3ccccc3)C2=O)cc1 (stereo not given),8.3,-6.0%,-17.6%,-1.1,0.6%,23.7,-10.1%
CN1C(=O)C(C)(C)c2cc(S(=O)(=O)NCC3CCC(C(=O)NC4CCCCC4)CC3)ccc21 (stereo not given),15.2,-2.8%,-46.2%[inhibitor],-3.3,-0.8%,5.4,15.2%
Cc1ccc(C(C(=O)NC(C)(C)C)N(Cc2cccs2)C(=O)c2csnn2)cc1 (stereo not given),31.4,-5.4%,0.5%,x,-3.0%,x,x
Cc1ccc(OCC(=O)Nc2ccc(C)c(F)c2)c([N+](=O)[O-])n1,4.8,-8.4%,-7.1%[15.4 µM],x,x,-11.1,x
CC(Oc1ccc2oc3ccccc3c2c1)C(=O)NC12CC3CC(CC(C3)C1)C2 (stereo not given),5.9,-8.4%,1.3%,10.9,u,9.2,u
CCN(CC)S(=O)(=O)N1CCC(C(=O)NC2CCCC2)CC1,-2.6,0.9%,-12.7%,-3.2,-2.6%,-8.7,12.6%
Cc1onc(-c2ccccc2)c1C(=O)N1CCCc2ccccc21,28.0,-15.0%,-31.0%[inhibitor],0.1,1.2%,-13.1,12.8%
Cc1ccc(NC(=O)NNC(=O)c2cccs2)cc1,-8.1,10.1%,-3.2%[15.4 µM],3.5,-0.8%,u,3.1%
CCOc1ccc(NC(=O)c2ccc(-n3cccn3)nc2)cc1,20.7,-5.5%,36.4%[15.4 µM],2.1,x,-8.8,8.8%
Cc1cc(C(=O)O)cc(S(=O)(=O)Nc2ccccc2C(=O)NC2CC2)c1C,12.3,1.7%,-3.6%,x,-18.3%,18.0,x
COc1ccc(-c2csc(C3=C(O)CN(C(C)C)C3=N)n2)cc1OC,-9.2,5.8%,u,2.3,x,-6.4,1.7%
Cc1ccc(CNCc2cccnc2)s1,-10.9,9.1%,-2.2%,0.6,-1.3%,0.0,15.4%
CN1CCN(NC(=O)c2cccc3ccccc23)CC1,23.1,1.8%,-12.2%[15.4 µM],7.6,0.2%,3.5,1.2%
COc1ccc(NC(=O)c2sc(-c3ccccc3)nc2C)c(OC)c1,14.2,u,-21.7%,-5.1,34.2%,4.4,4.6%
CCCOc1ccccc1C1NC(=O)NC(C)=C1C(=O)OCc1ccccc1 (stereo not given),14.9,1.0%,-39.3%[inhibitor],-0.1,-5.0%,2.3,4.1%
NS(=O)(=O)c1ccc(NC(=O)c2cccc3ccccc23)cc1,-11.3,-8.8%,-18.7%,3.8,-1.5%,-4.7,6.0%
CC(=O)c1c(C)[nH]c(C(=O)OCC(=O)Nc2cc(S(=O)(=O)N3CCCCC3)ccc2C)c1C,17.8,-7.7%,7.8%[15.4 µM],-1.8,-0.6%,-12.7,-8.5%
Cc1ccc2nc(NC(=O)c3ccc(-c4nc5ccccc5s4)s3)sc2c1,-9.9,4.3%,-8.2%,3.4,-8.3%,10.5,23.7%
COCCNC(=O)c1ccccc1-c1ccccc1C(=O)O,-0.5,2.4%,-6.8%,2.1,-1.1%,-5.2,14.5%
O=C(NCc1ccccn1)c1cc(-c2ccc(Cl)cc2)oc1C(F)(F)F,-12.1,9.8%,-18.1%,5.7,-8.0%,-7.3,7.3%
COC1CCCN(C(=O)c2ccc(OC3CCN(S(=O)(=O)N(C)C)CC3)cc2)C1 (stereo not given),-5.5,3.3%,-46.0%[inhibitor],x,-1.0%,12.9,6.2%
SMILES,TRPML1 inh,gsp antagonist,gsp agonist,Menin MLL FP FL,ClpP mod,TRPV1 PAM,Sfp PPTase inh
O=C(CCNC(=O)C1CCN(S(=O)(=O)c2ccccc2)CC1)NCc1ccc(Cl)c(Cl)c1,12.5,1.4%,29.8%,x,3.9%,16.9,4.9%
COc1ccc(CNC(=O)Nc2ccc(OC)cc2)cc1,-2.4,5.9%,-52.1%[inhibitor],-0.5,-3.0%,-13.3,16.1%
O=C(Nc1ccccc1F)Nc1ccc([N+](=O)[O-])cc1Cl,-3.9,-6.4%,4.6%,2.1,-2.7%,-11.1,13.4%
COCCNC(C(=O)Nc1ccc(C)cc1[N+](=O)[O-])c1ccccc1 (stereo not given),-18.9,-6.2%,19.0%[15.4 µM],-4.3,x,-12.5,3.8%
O=C(NCCc1ccccc1)c1c[nH]c2ccc(F)cc2c1=O,3.0,-4.7%,-16.7%,x,x,x,x
Clc1ccc2nc(CN3CCCCCC3)cn2c1,16.4,12.0%,-37.2%[inhibitor],-2.3,-14.4%,-7.4,-4.2%
O=C(CCc1ccc(S(=O)(=O)NCc2ccccc2)cc1)NCC1CCCO1 (stereo not given),-7.7,5.0%,u,2.2,-11.6%,6.1,1.1%
